LASV entry inh – Lassa virus entry inhibition | Lassa virus pseudotype entry inhibition, cell reporter; control for the full effect not named in the record | Potency, µM (doses to about 37.9 µM), for inactives: at the top dose activity change, negative = inhibition, most hits filed as inhibitors | 300,000 compounds, 1.2% hits; active means well fitted inhibition curve with a large enough effect; inconclusive means small, poorly fitted or top-dose-only effect, or effect the other way; inactive means flat fitted curve, though single readings scatter; tested in HEK293 cells; note: % is set by controls: 0 for no effect and ±100 for the full control effect; nearly all actives have a fitted effect of over 50% in size; luciferase read-out
NS1 function inh – blocks influenza NS1 protein function; S. cerevisiae slowed by influenza A NS1, growth recovery by OD600; Potency, µM (series often up to 46.1 µM), inactives show at the top dose activity, positive = more growth; 270,000 compounds, 0.4% hits; AID 2326; note: actives are rising curves; nearly all actives have a fitted effect of over 50% in size
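Read-out: OD600 growth recovery of NS1-expressing budding yeast. Cells grown overnight at 30C in -URA glucose medium, washed, resuspended and diluted 1:100 in 2% galactose assay medium, pH 6.0. Same strain lacking NS1 served as positive control.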
MARV entry inh – inhibitors of Marburg virus binding or cell entry; AID 540276; 300,000 compounds, 1.8% hits; Marburg virus pseudotyped entry inhibition, cell reporter; control for the full effect not named in the record; about a third of the inactives were read at about 46 µM; Potency, µM (highest dose often 37.8 µM), inactives show top-dose activity change, negative = inhibition, hits mostly inhibitors; active = well fitted inhibition curve with a large enough effect; inconclusive = small, poorly fitted or top-dose-only effect, or effect the other way; inactive = flat fitted curve, though single readings scatter; tested in HEK293 cells; about a fifth of its hits are not listed in these tables; note: % is set by controls: 0 for no effect and ±100 for the full control effect; luciferase read-out
RE007 growth inh – less growth of the S. pombe RE007 Vpr strain | Potency, µM (titrated, usually from 92.2 µM), without a hit: at the top dose activity change, negative = less growth | 360,000 compounds, 0.21% hits | S. pombe RE007 Vpr strain, BacTiter-Glo ATP luminescence, 24 h; control for the full effect not named in the record; active = well fitted falling curve with a large enough effect; inconclusive = small, poorly fitted or top-dose-only effect; inactive = no such curve, though single readings can be large or run the other way;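 note: % is set by controls: 0 for no effect and ±100 for the full control effect; nearly all actives have a fitted effect of over 50% in size; the assay follows cell death caused by Vpr and the record does not say whether a fall means rescue or toxicity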
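Fission yeast strain RE007, carrying one chromosomally integrated HIV-1 vpr copy, was seeded at OD 0.01 in PMG+AL medium with 23 nL pinned compound. After 24 h at 30 °C and 99% humidity, viability was read by BacTiter-Glo luminescence.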
Cruzain inh Det – blocks cruzain activity in presence of Triton detergent; purified cruzain, Z-FR-AMC fluorescence, 0.01% Triton; AID 1478; 200,000 compounds, 0.43% hits; Potency, µM, for inactives: max response, negative = inhibition, actives largely listed as inhibitors; active = well fitted curve in the direction sought with a large enough effect; inconclusive = small, poorly fitted or top-dose-only effect, or another doubt; inactive = no such curve, though single readings can be large; an effect the other way counts as inactive or inconclusive;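 note: plate controls were neutral wells for no effect and buffer without enzyme for full effect; nearly all actives have a fitted effect of over 40% in size; top concentration of the series not given in the record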
Target sequence (P25779 123-467 limits assumed): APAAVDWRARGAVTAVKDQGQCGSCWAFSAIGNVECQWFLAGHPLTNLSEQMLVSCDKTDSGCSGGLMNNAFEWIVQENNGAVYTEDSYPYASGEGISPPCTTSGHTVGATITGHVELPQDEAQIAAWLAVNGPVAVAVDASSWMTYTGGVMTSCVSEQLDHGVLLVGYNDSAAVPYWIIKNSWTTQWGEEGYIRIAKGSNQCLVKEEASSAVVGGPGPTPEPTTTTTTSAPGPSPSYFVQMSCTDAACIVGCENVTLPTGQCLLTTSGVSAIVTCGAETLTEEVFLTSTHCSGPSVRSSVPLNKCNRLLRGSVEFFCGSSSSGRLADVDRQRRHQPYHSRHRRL
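Detergent-containing arm of a paired screen for aggregation-based inhibition: 0.01% Triton X-100 present. Cruzain at 1.5 nM cleaved 2 uM Z-FR-AMC at pH 5.5 with 5 mM DTT; AMC fluorescence gain over 60 s measured activity.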
SARS PLP yeast – SARS-CoV PLP inhibition in yeast | S. cerevisiae expressing SARS-CoV PLpro, growth rescue; control for the full effect not named in the record | Potency, µM (highest dose often 32.9 µM), inactives show top-dose activity, positive = growth rescue | 330,000 compounds, 0.19% hits | AID 485353; note: 0% is about no effect; nearly all actives have a fitted effect of over 55% in size; growth read by luminescence after 48 h
Cruzain inh noDet – cruzain (T. cruzi) inhibition without detergent | P25779 | purified cruzain, Z-FR-AMC fluorescence, no detergent | Potency, µM, inactives show max response, negative = inhibition, hits mostly inhibitors | 200,000 compounds, 2.3% hits; active = well fitted curve in the direction sought with a large enough effect; inconclusive = small, poorly fitted or top-dose-only effect, or another doubt; inactive = no such curve, though single readings can be large; an effect the other way counts as inactive or inconclusive;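 note: plate controls were enzyme without inhibitor for no effect and buffer without enzyme for full effect; nearly all actives have a fitted effect of over 40% in size; top concentration of the series not given in the record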
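Detergent-free condition (0.00005% Triton X-100) in acetate buffer pH 5.5 with DTT. 1.5 nM enzyme and compound were pre-mixed 15 min, then 2 uM Z-FR-AMC substrate added; reaction progress from fluorescence change between first and third reads (60 s).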
StopGo reporter – FMDV 2A StopGo reporter, luciferase signal. human cells with a luciferase reporter of 2A StopGo recoding; control for the full effect not named in the record. Potency, µM (series often up to 57.9 µM), for the others: at the top dose signal change, negative = less light. 410,000 compounds, 1.2% hits. AID 1159524; active = well fitted falling curve with a large enough effect; inconclusive = small, poorly fitted or top-dose-only effect; inactive = no such curve, though single readings can be large or run the other way; tested in HEK293T cells; note: % is set by controls: 0 for no effect and ±100 for the full control effect; nearly all actives have a fitted effect of over 45% in size; luciferase light after 4 h
* marks the source's active call; other numbers are inactive results; u = inconclusive; x = not tested or not shown; & = joins results of further samples; [ ] = remark or other dose. Unless noted, calls come from the whole dose curve; as a rule, active means well fitted rising curve with a large enough effect; inconclusive means small, poorly fitted or top-dose-only effect; inactive means no such curve, though single readings can be large or run the other way. Potency is the fitted concentration of half-maximal effect.

The first four compounds, to show the layout:
molecule | LASV entry inh | NS1 function inh | MARV entry inh | RE007 growth inh | Cruzain inh Det | SARS PLP yeast | Cruzain inh noDet | StopGo reporter
COc1ccc(N2CCN(C(=O)CSc3nnc(NC(=O)C4CC4)s3)CC2)cc1 | u | 7% | -12% | 2% | x | 0% | x | -3%
Cc1cccc(-n2nnnc2SCC(=O)Nc2cccc(S(N)(=O)=O)c2)c1 | x | 2% | x | 8% | x | -1% | x | -9%
CCCC(c1nnnn1CCOC)N1CCN(c2cccc(OC)c2)CC1 (stereo unspecified) | 1% | 7% | 2%&2%[46.1 µM] | 30% | 2.1% | 0% | 0% | -14%
CC(C)(C)C(=O)Nc1cccc(C(=O)Nc2cc(C(=O)O)cc(C(=O)O)c2)c1 | 13% | 1% | 23% | 5% | 0.5% | -4% | 3% | 2%

Main list, from the start:
molecule | LASV entry inh | NS1 function inh | MARV entry inh | RE007 growth inh | Cruzain inh Det | SARS PLP yeast | Cruzain inh noDet | StopGo reporter
COc1ccc(N2CCN(C(=O)CSc3nnc(NC(=O)C4CC4)s3)CC2)cc1 | u | 7% | -12% | 2% | x | 0% | x | -3%
Cc1cccc(-n2nnnc2SCC(=O)Nc2cccc(S(N)(=O)=O)c2)c1 | x | 2% | x | 8% | x | -1% | x | -9%
CCCC(c1nnnn1CCOC)N1CCN(c2cccc(OC)c2)CC1 (stereo unspecified) | 1% | 7% | 2%&2%[46.1 µM] | 30% | 2.1% | 0% | 0% | -14%
CC(C)(C)C(=O)Nc1cccc(C(=O)Nc2cc(C(=O)O)cc(C(=O)O)c2)c1 | 13% | 1% | 23% | 5% | 0.5% | -4% | 3% | 2%
CCOc1cc(CNCc2cccs2)cc(Br)c1OCC | u | -23% | u | 3% | 6.6% | -1% | -4% | u
O=C(Nc1cccc(-c2nnc(-c3ccccc3)o2)c1)c1ccc(Br)o1 | u | -16% | 0% | -1% | 2.0% | -3% | u | x
COc1cc(NC(=O)CSc2ncc3c(n2)-c2ccc(Cl)cc2N(Cc2ccccc2)S3(=O)=O)cc(OC)c1 | 19%[46.1 µM] | x | x | x | 0.1% | x | -8% | 15%
N#C/C(=C(/O)COC(=O)c1ccc(Cl)c(S(=O)(=O)N2CCOCC2)c1)c1nc2ccccc2[nH]1 | -1% | u | 4% | -3% | -2.0% | 1% | -27% | -14%
COc1ccc(-c2nn(-c3cccc(F)c3)c3c2cnc2cc(OC)c(OC)cc23)cc1 | 30%[46.1 µM] | x | x | x | 1.8% | x | 0% | -2%
CC1(C)CC(=O)C2=C(C1)N(c1ccccc1)C(=O)CC2c1ccsc1 (stereo unspecified) | x | -4% | x | -12% | 6.2% | -8% | 0% | -23%
CCOc1ccc(C(=O)C2CCN(CC(=O)Nc3ccccc3N3CCOCC3)CC2)cc1 | 18µM* | -52% | u | 18% | -9.4% | -3% | 7% | -22%
O=C(c1cccc(F)c1F)N1CCCc2ccccc21 | 1% | 5% | 12% | -13% | x | 1% | x | -27%
Cn1c(=O)c2ncn(CC(=O)NCCC3=CCCCC3)c2n(C)c1=O | 5% | 1% | -21% | 9% | -3.5% | -3% | -7% | -24%
CCN1CCN(C(=O)CCc2nnc(CCc3ccc(OC)cc3)o2)[C@@H](C)C1=O | 4% | -2% | 21% | 9% | x | -3% | x | 20%
COc1ccc(Oc2c(C=O)c3ccccc3n2C)cc1 | -11% | -24% | -22% | -11% | -0.1% | 5% | 21% | -21%
COc1ccc(N2CCN(C(=O)COC(=O)c3cc(S(=O)(=O)N(C)C)ccc3N3CCCC3)CC2)cc1 | 0% | x | -10% | 1% | x | -5% | x | -8%
CCOC(=O)c1ccc(NC(=S)N2CCC(C(N)=O)CC2)cc1 | -17% | 5% | 21% | -18% | -2.0% | 20% | -6% | 24%
O=C(NCc1ccccc1Cl)c1cnccn1 | 11% | -12% | 12% | -11% | -0.2% | 2% | -10% | 3%
CC(=O)C1=C(c2ccc(F)cc2)N(C(C)=O)n2c(nnc2C2CCCCC2)S1 | 4%[46.1 µM] | x | x | x | 1.4% | x | -9% | u
COC(=O)c1cn(NC(=O)Cc2c(F)cccc2Cl)c(=O)c2ccccc12 | 18% | x | 25% | 9% | x | -5% | x | 4%

Quoted from the listing:
COc1ccc(Oc2c(C=O)c3ccccc3n2C)cc1 | NS1 function inh = -24%
O=C(NCc1ccccc1Cl)c1cnccn1 | Cruzain inh noDet = -10%
CCN1CCN(C(=O)CCc2nnc(CCc3ccc(OC)cc3)o2)[C@@H](C)C1=O | StopGo reporter = 20%

3 compounds already listed, sorted by number of heavy atoms, low to high:
molecule | LASV entry inh | NS1 function inh | MARV entry inh | RE007 growth inh | Cruzain inh Det | SARS PLP yeast | Cruzain inh noDet | StopGo reporter
CCOC(=O)c1ccc(NC(=S)N2CCC(C(N)=O)CC2)cc1 | -17% | 5% | 21% | -18% | -2.0% | 20% | -6% | 24%
Cn1c(=O)c2ncn(CC(=O)NCCC3=CCCCC3)c2n(C)c1=O | 5% | 1% | -21% | 9% | -3.5% | -3% | -7% | -24%
CCN1CCN(C(=O)CCc2nnc(CCc3ccc(OC)cc3)o2)[C@@H](C)C1=O | 4% | -2% | 21% | 9% | x | -3% | x | 20%

Next part:
molecule | LASV entry inh | NS1 function inh | MARV entry inh | RE007 growth inh | Cruzain inh Det | SARS PLP yeast | Cruzain inh noDet | StopGo reporter
O=C(NC(=S)Nc1ccc2[nH]c(=O)[nH]c2c1)c1cccc(F)c1 | u | 11% | u | -14% | x | -1% | x | 2%
O=C(OC1CCCC1)c1ccc(Cl)cc1Cl | 18%[46.1 µM] | x | 2%[46.1 µM] | 4% | x | x | x | 23%
O=C1CCN(Cc2cccnc2)CCN1[C@H](CO)Cc1ccccc1 | x | -3% | x | -7% | x | 8% | x | -18%
CCc1ccc(CNC(=O)c2c3c(nc4ccccc24)C(=O)N(C2CCCCC2)C3)cc1 | u | x | x | x | -8.7% | x | u | -24%
O=C(NCc1ccc2c(c1)CCN2C(=O)c1ccccc1)c1ccc(Br)o1 | -28%[46.1 µM] | x | x | x | 0.2% | x | -6% | -27%
O=C(CSCc1cccc(CSCC(=O)Nc2ccccc2)n1)Nc1ccccc1 | u | -53% | u | 24% | -0.3% | -5% | -3% | -26%
CC(C)Oc1ccc(C(=O)NC2(C(F)(F)F)NC(=O)N(CCCc3ccccc3)C2=O)cc1 (stereo unspecified) | -19% | 5% | 5% | -4% | -6.8% | -50% | 7% | -23%
COc1cccc(C(=O)Nc2ccc(N3CCCC3)cc2)c1 | u | -4% | u | u | 0.3% | -30% | -20% | -23%
COc1cc(NC(=O)c2ccc(-c3ccc(Br)cc3)o2)ccc1NC(=O)C(C)C | -7% | -25% | -11%[46.1 µM] | -1% | 0.2% | 5% | -5% | 0%
O=C(c1ccccc1)N1CCN(S(=O)(=O)N2CCCCCC2)CC1 | 8%[46.1 µM] | 2% | 1%[46.1 µM] | 12% | x | -4% | x | -9%
C/C(=N\NC(=O)CNC(=O)c1ccncc1)c1ccc(C)cc1 | -1% | x | u | 7% | x | 1% | x | -4%
O=C(Cn1cc(SCc2ccc(C(F)(F)F)cc2)c2ccccc21)N1CCOCC1 | 9%[46.1 µM] | x | x | x | -17% | x | u | 24%
NNC(=O)c1cccc(COc2ccc3c(c2)CCC3)c1 | 2.1µM* | u | u | -6% | -2.6% | -16% | -6% | 13µM*
O=C(c1ccc(Cl)cc1)c1cc([N+](=O)[O-])ccc1N1CCOCC1 | u | 1% | u | 42% | x | 1% | x | u
Cc1c(Cl)cccc1NC(=O)CSc1nc(=O)n(Cc2ccccn2)c2c1CCC2 | 14%[46.1 µM] | x | x | x | -3.7% | x | 3% | -9%
CCOC(=O)N/N=C/c1cc(C)n(-c2cccc3ccccc23)c1C | u | 1% | u | 20% | -9.1% | -3% | -15% | -25%
CCCc1cc(=O)[nH]c(SCc2nc3ccccc3o2)n1 | 2% | -9% | 12%[46.1 µM] | 5% | x | -12% | x | 18%
Cc1cccc(NS(=O)(=O)c2ccc3c(c2)oc(=O)n3C)c1C | -5%[46.1 µM] | 1% | 8%[46.1 µM] | 8% | x | -4% | x | -21%
Cn1c(C(=O)NCC2CCCO2)cc2c(=O)n3ccccc3nc21 (stereo unspecified) | 15% | -2% | 9% | 3% | u | 1% | -27% | 26%
O=C(O)CC/C(=C\c1cccc(NC(=O)c2ccccc2Cl)c1)c1nc2ccccc2s1 | x | u | x | -15% | x | 2% | x | 16%
CCc1ccc(-n2nnc(-c3nc(-c4ccc(C)cc4)no3)c2N)cc1 | 1%[46.1 µM] | x | x | x | 0.2% | x | 20% | 7%
COc1cccc(C(=O)CC(=O)C(=O)Nc2ccc(C)cc2Cl)c1 | 29%[46.1 µM] | -4% | -29%[46.1 µM] | 5% | x | 6% | x | -18%
O=C(CNC(=O)c1ccc(F)cc1)N/N=C/c1cccnc1 | -11%[46.1 µM] | 5% | -5%[46.1 µM] | -6% | x | 1% | x | -4%
COC(=O)C1=C(C)N(Cc2ccco2)C(=O)/C1=C\c1ccc(N(C)C)cc1 | -6% | 35% | u | 15% | -7.7% | -3% | 4% | -12%
Cc1ccc(C)c(S(=O)(=O)Nc2ccc(O)c3ccccc23)c1 | x | u | x | -4% | x | 7% | x | 2%
COc1ccc2nc(N3CCN(C(=O)C4CC4)CC3)sc2c1 | -21%[46.1 µM] | x | x | x | -1.6% | x | -2% | 31%[activator]

From PubChem
